# Screens (PubChem BioAssay)
# NPR1 antag: blocks ANP-stimulated signaling of human Npr1 receptor; 76,000 tested, 1.6% active; P16066; HEK293 hNpr1 GloSensor cGMP, ANP-stimulated luminescence; Potency, µM (highest dose often 46.3 µM), for inactives: at the top dose activity change, negative = inhibition, hits mostly inhibitors; active = well fitted inhibition curve with a large enough effect; inconclusive = small, poorly fitted or top-dose-only effect; inactive = no such curve, though single readings can be large or run the other way;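 also: nearly all actives have a fitted effect of over 60% in size; nearly all hits also lower the signal before the agonist is added; a reference antagonist and vehicle were the controls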
# Target sequence (P16066 whole entry, looked up): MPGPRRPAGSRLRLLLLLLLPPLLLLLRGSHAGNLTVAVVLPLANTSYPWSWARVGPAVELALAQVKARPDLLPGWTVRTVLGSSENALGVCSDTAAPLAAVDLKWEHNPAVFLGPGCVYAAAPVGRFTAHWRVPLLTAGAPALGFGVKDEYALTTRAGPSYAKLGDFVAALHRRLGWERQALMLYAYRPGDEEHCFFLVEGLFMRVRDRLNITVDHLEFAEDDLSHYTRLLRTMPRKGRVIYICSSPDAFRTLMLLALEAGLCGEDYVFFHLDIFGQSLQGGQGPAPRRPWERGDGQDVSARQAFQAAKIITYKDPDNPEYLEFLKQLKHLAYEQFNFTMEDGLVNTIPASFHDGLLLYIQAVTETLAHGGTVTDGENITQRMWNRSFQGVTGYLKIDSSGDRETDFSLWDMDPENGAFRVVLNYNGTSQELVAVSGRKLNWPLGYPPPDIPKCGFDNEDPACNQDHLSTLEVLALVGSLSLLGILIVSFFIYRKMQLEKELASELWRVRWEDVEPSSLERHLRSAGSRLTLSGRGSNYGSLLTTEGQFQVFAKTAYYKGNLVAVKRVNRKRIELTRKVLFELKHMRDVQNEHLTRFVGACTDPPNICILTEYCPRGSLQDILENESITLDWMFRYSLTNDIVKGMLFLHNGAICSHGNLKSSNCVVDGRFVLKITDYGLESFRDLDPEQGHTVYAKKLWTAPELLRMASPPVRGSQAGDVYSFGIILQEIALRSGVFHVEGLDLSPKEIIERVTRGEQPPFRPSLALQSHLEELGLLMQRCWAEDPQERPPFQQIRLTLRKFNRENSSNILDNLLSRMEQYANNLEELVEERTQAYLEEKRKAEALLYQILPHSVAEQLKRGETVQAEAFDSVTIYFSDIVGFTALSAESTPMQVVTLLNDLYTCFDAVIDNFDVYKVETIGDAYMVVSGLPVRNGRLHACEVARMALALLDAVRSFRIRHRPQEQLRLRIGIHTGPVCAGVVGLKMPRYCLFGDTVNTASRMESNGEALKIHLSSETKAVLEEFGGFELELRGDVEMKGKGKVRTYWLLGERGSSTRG
#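 HEK293 cells stably expressing human Npr1 and cGMP GloSensor pGS-40F, loaded 2 h with 2% GloSensor reagent, given compound 30 min at room temperature. Luminescence read before and 20 min after 0.1 nM hNppA.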
# * = called active by the depositor; ? = inconclusive; [ ] = another dose, or the depositor's remark. % is scaled to controls: 0 for no effect and ±100 for the full control effect; potency is read from the fitted curve at half-maximal effect. Not all compounds are listed (hit frequency here may not be typical).
entry	mol	NPR1 antag
1	CCCCc1nn(CC(=O)NC[C@H]2CCc3ccccc3O2)c(=O)n1CC	-1.0%
2	O=c1[nH]c(C2CCN([S+](=O)([O-])c3cccc(C(F)(F)F)c3)CC2)nn1-c1ccccc1	-9.9%
3	CO[C@H]1COCCN(C(=O)c2cc(C)nn2C)C1	10.6%[70.6 µM]
4	O=C(Nc1ccc(Cl)cc1)N1CCC(Oc2ncccc2C(=O)N2CCOCC2)C1 (stereo unspecified)	0.0%
5	COCC1CN(C(=O)c2ccc3cc[nH]c3c2)CC12CCOCC2 (stereo unspecified)	3.7%
6	O=C(Cc1cccc(Cl)c1)N1CCn2c(nnc2-c2ccccc2)C1	-24.5%
7	CC(C)CCNC(=O)c1ccc(N2CC3CC(C2)[C@H]2CCCC(=O)N2C3)nc1 (stereo partly specified)	0.8%
8	O=C(c1ccc2cc[nH]c2c1)N1CCC(N2CC(OCC3CC3)C23CCOCC3)CC1 (stereo unspecified)	-0.5%
9	O=C(NC1CC1)C1CC(=O)N(c2n[nH]c3ccccc23)C1 (stereo unspecified)	5.6%
10	COc1ccc(NC(=O)Cn2c(-c3cccc(Cl)c3)nc(C)c(CCO)c2=O)cc1OC	-5.3%
11	CCc1noc(-c2cn(C3CCN(C(=O)C(C)Oc4ccccc4)C3)nn2)n1 (stereo unspecified)	-6.3%
12	Cc1ccc(C(=O)N2CCC(c3nc(-c4ccccc4)no3)C2)s1 (stereo unspecified)	?
13	CCN1c2cc(C(=O)Nc3ccc(OC)c(F)c3)ccc2C(=O)N2CCCCCC21 (stereo unspecified)	-18.7%
14	O=C(Nc1ccc(F)cc1)N1CCC(O)(c2csc(CN3CC[C@@H](O)C3)n2)CC1	-3.4%[70.6 µM]
15	COc1ccc2nc([C@H]3CCN(C(C)C)C3)[nH]c2c1	?
16	CCc1c(C)cc(C(=O)N[C@H]2CCOC[C@H]2C2CCOCC2)c(=O)n1C	1.1%
17	CCn1cnnc1CC1CCN(C(=O)c2cnn3c(C)c(Cc4ccccc4Cl)c(C)nc23)CC1	-2.1%
18	COc1ccc(-c2ccnc(-c3nnc(C)n3Cc3cccnc3)c2)cc1OC	-6.2%[70.6 µM]
19	COc1ccc(C2Cn3nnc(-c4noc(-c5ccc(N(C)C)cc5)n4)c3CO2)cc1 (stereo unspecified)	5.9%
20	O=C(Cn1cccc1-c1nc(-c2ccc(F)cc2)no1)NC1CCCC1	5.5%
21	CCOc1ccccc1CN1C[C@@H](CO)[C@H](NC(=O)COC)C1	-2.9%
22	CCCn1cc(C(=O)N2CC[C@@](O)(COC)C(C)(C)C2)c(C)n1	-2.7%
23	COc1ccc(C(=O)N2CCC3(CC2)N=C(c2ccc(C)cc2)NO3)cc1F	?
24	Fc1ccc(C2Cn3nnc(-c4nc(-c5cccc(Br)c5)no4)c3CO2)cc1 (stereo unspecified)	-5.5%
25	O=C(c1ccc2c(c1)OCO2)N1CCCN(c2cc(-c3ccc(Cl)cc3)[nH]n2)CC1	-29.5%
26	Cn1cccc1CNC(=O)Cn1nc2c(cc1=O)CCCCC2	0.1%
27	Cc1cccc(OCCc2noc(C3CNC3)n2)c1	?
28	O=C([C@@H]1C[C@H](F)CN1C(=O)Nc1ccccc1Cl)N1CCCCC1	-4.4%
29	COc1ccc(-c2cc(N3CCCC(NC(=O)c4cc(C)ccc4C)C3)n[nH]2)cc1 (stereo unspecified)	-19.0%
30	COC(=O)[C@@H]1Cc2ncn(Cc3ccc(Cl)cc3)c2CN1Cc1ccc(CO)o1	-8.3%[70.6 µM]

# A different layout for part of the listing above.
8) O=C(c1ccc2cc[nH]c2c1)N1CCC(N2CC(OCC3CC3)C23CCOCC3)CC1 (stereo unspecified)
  NPR1 antag: -0.5%
9) O=C(NC1CC1)C1CC(=O)N(c2n[nH]c3ccccc23)C1 (stereo unspecified)
  NPR1 antag: 5.6%

# Following part.
entry	mol	NPR1 antag
31	CCc1nc2cc(N3CCC(C(=O)NCc4ccccc4F)CC3)cnc2nc1CC	-9.4%
32	O=C1CCN(C(=O)c2ccccc2)CCCC(C(=O)NCCCn2cccn2)CCN1 (stereo unspecified)	10.9%
33	CCNC(=O)c1cccnc1OC1CCN(C(=O)CCCc2ccccc2)C1 (stereo unspecified)	6.4%
34	O=C(NCC1CCN(Cc2ccccn2)C1)Nc1ccc(F)cc1 (stereo unspecified)	0.9%
35	O=C(C1CCOCC1)N1CCC2(CC1)CC(N(Cc1ccc(F)cc1)C1CC1)CCO2 (stereo unspecified)	-2.0%
36	O=C(CCCn1cnnn1)NC1CCCc2c1cnn2-c1ccccn1 (stereo unspecified)	5.8%
37	CC1(c2ccccc2)N(Cc2ccccc2)C(=O)OC12CCN(Cc1c[nH]c3ccccc13)CC2 (stereo unspecified)	?
38	O=C(C[C@@H]1CCNC[C@@H]1Cc1cc(CC2CCCCC2)on1)NCc1ccco1	?
39	CCOC(=O)c1nn(Cc2ccc(OC)cc2)c2c1CN(C(=O)c1ccc3nc[nH]c3c1)CC2	6.5%
40	CCc1nc(-c2ccc(OC3CCN(C(=O)Cc4cccc(OC)c4)C3)cc2)no1 (stereo unspecified)	?
41	O=C1[C@H]2CN(Cc3ccc(F)c(F)c3)C[C@H]2C(=O)N1Cc1ccc2c(c1)OCO2	4.8%
42	COc1cccc(CC(=O)N2CC[C@@H](NC(=O)c3ccncc3)[C@H](O)C2)c1	10.8%
43	O=C1NCCCCCN(C(=O)NCCc2ccccc2)[C@H]2CCC[C@@H]12	4.3%
44	O=C(c1nc(-c2ccc(F)cc2)c2ccccn12)N1CCOCC1	0.0%[70.6 µM]
45	CCOc1ccccc1C(=O)N1CCC(N2C(=O)CCC2C(=O)NCc2ccccc2)CC1 (stereo unspecified)	-0.7%
46	COc1ccc(C(=O)NCc2nnc3ccc(-c4ccc(Cl)cc4)nn23)cc1OC	5.1%
47	Cc1cc(C(=O)N2CCCCCCNC(=O)CC2c2ccccc2)nn1C (stereo unspecified)	-0.5%
48	CC(=O)c1[nH]c(C)c(C(=O)N2CCCC(O)(CNC(=O)N(C)C)CC2)c1C (stereo unspecified)	7.7%
49	Cc1noc2c(-c3cccnc3NCc3cccnc3)cc(-c3ccccc3)nc12	5.6%[70.6 µM]
50	CCc1nc([C@H]2CN(C)C[C@@H]2C(=O)NCC23CCCN2CCC3)c(C)[nH]1	1.6%
51	CCCN1CCCn2nc(CNC(=O)Nc3ccccc3SC)cc2C1	5.3%
52	COc1ccc(CCNC(=O)c2nnn3cc(-c4ccccc4)[nH]c(=O)c23)cc1OC	0.0%
53	CCCc1noc(-c2cccn3c(CNC(=O)COc4cccc(C)c4)nnc23)n1	-1.9%
54	O=C(COc1ccc(Cl)cc1)NC1CCc2n[nH]c(=O)n2CC1 (stereo unspecified)	-11.2%
55	Cc1cccc2c(C3CCN(S(=O)(=O)c4cc(Cl)cc(Cl)c4)CC3)c[nH]c12	2.4%
56	Fc1ccc(Cn2ccnc2-c2ccccn2)c(Cl)c1	-4.4%
57	COc1cccc(C(=O)NCCn2ccn3nc(-c4ccc(C)c(C)c4)cc3c2=O)c1	-18.7%
58	COc1ccc(C(=O)NC(C(=O)NCC(C)C)C2CCN(C(=O)C3CC3)CC2)cc1 (stereo unspecified)	2.6%
59	COc1ccc(C[C@H](NC(=O)C2=C[C@@H](NC(=O)c3ccc(OC)cc3)[C@@H](O)[C@H](O)C2)C(N)=O)cc1	5.0%
60	COc1ccc(-c2cnc(Nc3ccc(CN4CCN(C)CC4)cc3)c3c2CCO3)cn1	-15.4%[70.6 µM]

# Exported with the structure last: 2 of the compounds above
nr | NPR1 antag | SMILES
42 | 10.8% | COc1cccc(CC(=O)N2CC[C@@H](NC(=O)c3ccncc3)[C@H](O)C2)c1
43 | 4.3% | O=C1NCCCCCN(C(=O)NCCc2ccccc2)[C@H]2CCC[C@@H]12

# The results go on.
entry	mol	NPR1 antag
61	CCO[C@H]1CN(Cc2ccc(OC)c(OCc3cccc(F)c3)c2)C[C@@H]1O	-2.5%
62	CN1C(=O)N(CCc2ccccc2)C(=O)C12CCN(Cc1cn[nH]c1-c1ccc(F)cc1)CC2	5.3%
63	O=C(NCc1cn[nH]c1-c1ccc(F)cc1)C1COc2ccccc2C1 (stereo unspecified)	-14.5%
64	O=C(NCc1ccc(OC(F)(F)F)cc1)N1CCCC(Cn2cnc3cccnc32)C1 (stereo unspecified)	-6.2%
65	CCCN1CCCC2(CCN(C(=O)c3ccc4nc(C)sc4c3)C2)C1=O (stereo unspecified)	2.8%
66	CCN1CCC(N2CCCC(C(=O)NCc3ccccc3)CCNC(=O)CC2)CC1 (stereo unspecified)	2.4%
67	O=C(c1ccccn1)N1CC(CO)C2(CCNCC2)C1 (stereo unspecified)	7.2%
68	CN1CCC(N(C)C(=O)CCC[C@@H]2[C@H]3CCCN4CCC[C@@H](CN2Cc2ccccc2)[C@@H]34)CC1	-1.7%
69	COc1ccc(CCNC(=O)CC(c2cccc(OC)c2OC)c2c[nH]c3ccccc23)cc1OC (stereo unspecified)	-20.8%
70	COc1ccc(CCNC(=O)CN2C(=O)NC3(CCOCC3)C2=O)cc1OC	26.6%
71	COCCOC1CCN(C(=O)NCCc2ccccc2)CC1	8.2%
72	CCN(CC)C(=O)CC[C@@H]1CNC(=O)[C@@H]2C[C@H](NCc3ccccc3)CN12	6.7%[70.6 µM]
73	COCCNc1ccc(-c2noc([C@@H]3CCCN3Cc3ccccc3F)n2)cn1	7.2%[70.6 µM]
74	Cc1cc(N2C[C@H](NC(=O)CN3CC(=O)NC3=O)[C@@H](C3CC3)C2)ncn1	0.0%
75	CCc1[nH]nc(C(=O)N2CCC(c3[nH]ncc3-c3cccc(C)c3)CC2)c1C	-17.1%
76	CC(C)CNc1ccc2c(n1)C(C)(C(=O)NC1CC1)CN(Cc1ccccc1)C2 (stereo unspecified)	-13.9%[70.6 µM]
77	Cc1ccc(C)c(-c2cc3c(=O)n(CCNC(=O)c4ccccc4)ccn3n2)c1	-12.7%
78	Cc1cccc(NC(=O)N2CC(Oc3ccccc3-c3nc(-c4ccccc4)no3)C2)c1	2.0%
79	COCC1CN(C)CC12CCN(S(=O)(=O)c1cccc(OC)c1)CC2 (stereo unspecified)	-16.8%
80	Cc1cc(F)ccc1NC(=O)c1cnc2c(c1)N(C(=O)CCc1ccccc1)CCC2	-2.1%[70.6 µM]
81	COc1cccc(-c2cnc([C@@H]3COCCN3Cc3ccccc3)[nH]2)c1	-2.1%[70.6 µM]
82	CC1CCC2(CC1)OCC(C(=O)NCC1CCCO1)N2C(=O)c1cccc([N+](=O)[O-])c1 (stereo unspecified)	-5.2%
83	Cn1ncc(N2CCC(CNC(=O)c3ccccc3-n3cncn3)C2)cc1=O (stereo unspecified)	-0.7%
84	CN(Cc1ccccc1)C(=O)C[C@@H]1c2nc(NC(=O)c3c(F)cccc3F)sc2C[C@@H]2[C@](C)(CO)[C@H](O)CC[C@]21C	5.8%
85	Cc1cn2nc(C(=O)Nc3ccc(C(F)(F)F)cc3)cc2c(N2CCSCC2)n1	?
86	COc1ccc(-c2ccc3ncn(C4CC4)c(=O)c3n2)cc1OC	3.5%[70.6 µM]
87	CNC(=O)N1CCC(n2c(C)cnc2-c2ccccc2)CC1	-0.4%
88	Cc1cccc(-c2ccc3c(c2)C(=O)N2CC[C@H](NC(=O)COCC(=O)O)[C@H]2C(=O)N3)c1C	-1.5%
89	COc1ccc2c(c1)OCC(C(=O)NCCNc1cc(C)ccn1)C2 (stereo unspecified)	1.7%
90	Cn1cccc1C(=O)N[C@H]1C[C@H]2C(=O)Nc3ccc(/C=C/c4ccccc4)cc3C(=O)N2C1	-13.0%

# Values in list order from the list:
# NPR1 antag, compounds 47 to 51 → -0.5%, 7.7%, 5.6%[70.6 µM], 1.6%, 5.3%

# (continued)
entry	mol	NPR1 antag
91	CCc1[nH]c2c(CNC(=O)c3cnc(C)nc3)cc(C)cc2c1C	1.3%
92	CCCN(CC1CC1)C(=O)C1CCCN(Cc2ccncc2)CCC(=O)NCC1 (stereo unspecified)	-7.4%
93	COCC(=O)N1CCC(Oc2ccc(C(=O)NCCN3CCNC3=O)cc2)CC1	4.6%
94	COc1cccc(C(=O)N2CCOc3ccc(CN4CCc5ccccc5C4)cc3C2)c1	-4.3%
95	COCC1CN(C(=O)CC2CCN(C(C)=O)CC2)CC12CCNCC2 (stereo unspecified)	2.2%
96	CCc1noc(-c2cn(C3CCN(C(=O)c4ccc(F)cc4Cl)C3)nn2)n1 (stereo unspecified)	?
97	Cc1ccc(-c2cc(N3CCC(CNC(=O)c4n[nH]c5c4CCCC5)CC3)n[nH]2)cc1	?
98	O=C(NCC1CCCCC1)C1CCN(C(=O)N2CC3CC(C2)[C@H]2CCCC(=O)N2C3)CC1 (stereo partly specified)	5.1%
99	O=C(Nc1ccc2c(c1)CN(Cc1ccc(Cl)cc1)C(=O)CO2)c1ccc(F)cc1F	-26.6%
100	CC(C)(C)CC(=O)NC[C@H]1OC[C@@H](NC2CCC2)[C@@H]1O	0.2%[70.6 µM]
101	COc1cc(=O)n2c(c1C(=O)Nc1ccc(C#N)cc1)CCCC2	0.7%
102	O=C(Cn1nc2n(c1=O)CCN(Cc1cccc(Cl)c1)C2=O)NCCC1=CCCCC1	19.6%
103	CC(C)N1C(=O)C2(CCCC2)C1C(=O)N(C)CCc1ccccn1 (stereo unspecified)	-0.6%
104	COc1ccc2[nH]cc(CCNC(=O)c3ccc4c(c3)C(O)CCCCCN4C)c2c1 (stereo unspecified)	-19.7%
105	COc1ccc(C[C@H](NC(=O)[C@@H]2C[C@H](NC(=O)Nc3cccc(OC)c3)CN2C(=O)c2cccn2C)C(N)=O)cc1	-1.7%
106	Cc1ccc(NC(=O)Cn2c(N3CCC(C)CC3)nc(C)cc2=O)c(C)c1	-1.7%
107	COCCCNC(=O)C1c2ccccc2C(=O)N(c2ccccc2)C12CCCCC2 (stereo unspecified)	-1.0%
108	COc1ccc(C2Cn3nnc(C(=O)N4CCN(C(=O)c5cc(F)ccc5Cl)CC4)c3CO2)cc1 (stereo unspecified)	12.6µM*
